# HPGD inh: blocks human HPGD enzyme activity; P15428; purified HPGD, NADH fluorescence kinetic, PGE2 substrate; Potency, µM, inactives show at the highest dose activity change, negative = inhibition, usual class: inhibitors; 150,000 compounds, 4.3% hits; AID 894; active = well fitted inhibition curve with a large enough effect (not every such curve was filed as active); inconclusive = small, poorly fitted or top-dose-only effect, or another doubt; inactive = no such curve, though single readings can be large or run the other way;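 further: top concentration of the series not given in the record; plate controls included wells without enzyme; inactives centre near -10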
# Target sequence (P15428 whole entry, looked up): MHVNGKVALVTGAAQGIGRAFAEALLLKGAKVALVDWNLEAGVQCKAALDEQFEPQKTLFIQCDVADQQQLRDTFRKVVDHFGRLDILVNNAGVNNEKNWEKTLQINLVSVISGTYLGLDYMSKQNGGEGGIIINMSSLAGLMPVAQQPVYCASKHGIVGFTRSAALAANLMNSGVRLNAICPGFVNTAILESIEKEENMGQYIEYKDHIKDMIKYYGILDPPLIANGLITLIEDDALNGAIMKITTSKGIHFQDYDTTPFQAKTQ
#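 20 nM HPGD preincubated 15 min at room temperature with compound in 50 mM Tris-HCl pH 8, 0.01% Tween 20. Started with 1 mM NAD+ and 30 uM prostaglandin E2; NADH fluorescence (360/450 nm) read 5 times over 30-s intervals, last minus first.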
# Numbers without * were called inactive; u = inconclusive; & = joins results of further samples. On the % scale 0 is the no-effect control and ±100 the full control effect; potency means the concentration at half of the fitted maximal effect. A portion of the library; count on the stated rates, not on these rows.
SMILES,HPGD inh
O=C(CN(CC1CCCO1)C(=O)CCC(=O)Nc1nccs1)NCC1CCCO1 (centres undefined),-5%
O=C(NC1(O)C(=O)c2ccccc2C1=O)c1ccccc1,-4%
COc1cc(OC)cc(C(=O)NCCn2ccc3ccccc32)c1,-9%
Cc1cc(C(=O)CSc2nnc(-c3cccs3)n2Cc2ccccc2)c(C)n1C,-4%
COc1cc2c(-c3ccc(O)cc3)nc3c(c(C)nn3-c3ccccc3)c2cc1OC,u
Cc1ccc(C(=O)NC(=S)Nc2ccccc2N2CCCC2)cc1[N+](=O)[O-],-12%
CS(=O)(=O)c1ccc(-c2nn[nH]n2)cc1,-7%
O=C1CC(C(=O)O)S/C(=N\NC(=O)c2ccc(F)cc2)N1 (centres undefined),-12%
CCN(CC)S(=O)(=O)c1ccc(/C=C/C(=O)Nc2ccc(Br)cc2F)cc1,-10%
CS(=O)CSc1nc2c(cc1C#N)CCCC2 (centres undefined),-1%

# Some values from above.
# Entry for Cc1cc(C(=O)CSc2nnc(-c3cccs3)n2Cc2ccccc2)c(C)n1C under HPGD inh: -4%
# Entry for O=C1CC(C(=O)O)S/C(=N\NC(=O)c2ccc(F)cc2)N1 (centres undefined) under HPGD inh: -12%

# The list continues.
SMILES,HPGD inh
COc1cc(/C=N/NC(=O)Nc2ccccc2)ccc1OC(C)=O,0%
COCCNc1nc(C)nc2c1nc(-c1ccccc1)n2CCN(C)C,u
Cc1ccc(C(c2sc3ncnn3c2O)N2CCCCC2)cc1 (centres undefined),-15%
COc1ccccc1-c1n[nH]c(=S)n1-c1ccccc1,32µM*
CCn1c(/C=C/c2c(C)n(CC)c3ccccc23)nc2ccccc2c1=O,-11%
CCOC(=O)c1c(-c2ccc(C)cc2)csc1NC(=O)c1ccc(N2C(=O)CCC2=O)cc1,u
CC(C)(C)n1nnnc1C(c1cccnc1)N(Cc1ccccc1)Cc1cccs1 (centres undefined),-2%
CCC(C)(C)n1nnnc1C(c1cc2cc(C)cc(C)c2[nH]c1=O)N1CCN(C(=O)c2ccco2)CC1 (centres undefined),-22%
CC#CCN1c2ccccc2[C@]23C[C@@H](C(=O)OC)N(C(=O)COCc4ccccc4)C2=NC(C(=O)OC)=C(C(=O)OC)[C@H]13,4%
Cn1c(=O)n(C)c2cc(C(=O)c3ccccc3)ccc21,-14%
Cc1cc(C)nc(Sc2c(C)n[nH]c2C)n1,-6%
Cc1ccc(N2C(=O)CC(N3CCN(C4CCc5ccccc5C4)CC3)C2=O)cc1 (centres undefined),-6%
Cc1ccc(N2C(=O)C(O)(C(F)(F)F)C3=C2CC(C)(C)CC3=O)cc1C (centres undefined),-16%
Cc1nn(-c2ccccc2)c(N2CCCC2)c1/C=N/NC(=O)c1cc(-c2ccccc2)nc2ccccc12,-29%
COc1ccc(/C(C)=N/OC/C(O)=C(\C#N)c2nc3ccccc3[nH]2)c(OC)c1,-17%
COc1cc(C(=O)NC(=S)Nc2ccc([N+](=O)[O-])cc2C)cc(OC)c1OC,-7%
Cc1nc(/N=C(\N)Nc2ccccc2)nc2ccccc12,-20%
COc1ccccc1N1C(=O)C2ON(c3ccccc3)C(c3ccc(N(C)C)cc3)C2C1=O (centres undefined),u
COc1ccc(CCN2C(=O)c3[nH]nc(-c4ccccc4O)c3C2c2ccc(C)cc2)cc1OC (centres undefined),-14%
COc1ccccc1-c1c(C)nn2c(C)cc(C)nc12,-6%

# Ordered by the number under HPGD inh (lowest first): some entries from above.
SMILES,HPGD inh
Cc1nn(-c2ccccc2)c(N2CCCC2)c1/C=N/NC(=O)c1cc(-c2ccccc2)nc2ccccc12,-29%
Cc1ccc(N2C(=O)C(O)(C(F)(F)F)C3=C2CC(C)(C)CC3=O)cc1C (centres undefined),-16%
COc1ccc(CCN2C(=O)c3[nH]nc(-c4ccccc4O)c3C2c2ccc(C)cc2)cc1OC (centres undefined),-14%
COc1cc(C(=O)NC(=S)Nc2ccc([N+](=O)[O-])cc2C)cc(OC)c1OC,-7%
COc1ccccc1-c1c(C)nn2c(C)cc(C)nc12,-6%

# More results follow:
SMILES,HPGD inh
Cn1c(=O)[nH]c(=O)c2c1nc(N1CCCC1)n2CCCSc1nc2ccccc2o1,28µM*
CCSc1nc(CC)c2c(c1C#N)CCCC2,-18%
Cn1c(=O)oc2cc(S(=O)(=O)NCCN3CCN(c4ccccc4)CC3)ccc21,1%
Cc1ccc(N2CCCn3c2cc(C)c(C#N)c3=O)cc1C,u
Cc1cs/c(=N\N=C\c2ccc(O)cc2)n1Cc1ccco1,-10%
O=C(CC(CC(=O)c1ccccc1)C(=O)O)c1ccccc1,1%
Nc1c2c(nc3ccn(-c4ccccc4)c(=O)c13)CCCCC2,-18%
COc1ccc(S(=O)(=O)N2CCN(Cc3c[nH]c4ccccc34)CC2)cc1,-5%
O=C(Nc1ncc(Cc2cc(Cl)ccc2Cl)s1)c1ccc([N+](=O)[O-])cc1,-12%
COC(=O)c1cc(NC(=O)Cc2ccccc2[N+](=O)[O-])cc(C(=O)OC)c1,-16%
NC(N)=NNC(=O)C(=O)O,-6%
Cc1ccc(C(=O)CSc2ncnc3sc4c(c23)CCCC4)cc1,-15%
CC(=O)Nc1ccc(S(=O)(=O)Nc2nc3ccccc3s2)cc1,-19%
CC(=O)c1cc(-c2ccc(F)cc2)n(CC(=O)NCc2cccs2)c1C,-10%
CC(=O)Nc1ccc(SCC(=O)OCC(=O)NC(=O)NCc2ccco2)cc1,-7%
COc1cccc(-c2nc(N3CC(C)CC(C)C3)c3ccccc3n2)c1O (centres undefined),-8%
CCCOc1cccc(NC(=O)OC2CCN(C)CC2)c1,-6%
COc1ccc(S(=O)(=O)N(c2onc(C)c2Cl)S(=O)(=O)c2ccc(OC)cc2)cc1,-20%
CCCCN(C(=O)Cn1nnc2ccccc21)C(C(=O)NCCOC)c1ccc(OC)cc1OC (centres undefined),-2%
CCCCC[C@H](O)/C=C/[C@@H]1[C@@H](CCCCCCC(=O)O)[C@@H](O)C[C@H]1O,-16%&-11%
CC(=O)Nc1nonc1NC(C)=O,-7%
Cc1ccccc1C(OCCN(C)C)C1CCCCC1 (centres undefined),-7%
CCOC(=O)c1nn(-c2ccccc2)c2nc(Nc3ccccc3)cc(=O)n12,-17%
O=[n+]1cc(-c2ccccc2)n([O-])c2c1CCC2,-3%
CCCn1c(-c2ccc(F)cc2)nc2c(NCCN(C)C)nc(C)nc21,u
CCCNC(=O)c1ccccc1NC(=O)COc1ccc(OC)cc1,-11%
COc1ccc(/C=N/NC(=O)C(C)n2cnc3ccccc3c2=O)cc1 (centres undefined),-5%
CCCCC(CC)CNC(=O)C(=O)c1ccccc1NC(C)=O (centres undefined),1%
O=C(Oc1ccc(N(Cc2cccs2)C2=NS(=O)(=O)c3ccccc32)cc1)c1ccccc1Cl,-21%
Cc1cc(NCCC(C)C)n2nc(C)c(-c3ccccc3)c2n1,u
O=C(CSc1nc2nc3c(cc2c(=O)n1-c1ccccc1)CCCC3)Nc1ccccc1,-24%
Cc1ccc2nc(-c3ccc(NC(=O)c4ccco4)cc3)[nH]c2c1,u
CCCOc1ccc(N2CC(C(=O)NC(C)C)CC2=O)cc1 (centres undefined),-6%
COC(C(=O)Nc1cccc(F)c1)c1ccccc1 (centres undefined),-7%
CCOc1ccc(-n2cc(C(=O)Nc3cccc(OC)c3)c3cc(OC)c(OC)cc3c2=O)cc1,-24%
O=C(O)c1ccccc1C1=Nc2ccc(O)cc2Oc2cc(O)ccc21,-7%
CC1CCN(C(c2ccc(N(C)C)cc2)c2nnnn2C(C)(C)C)CC1 (centres undefined),-29%
COCCNS(=O)(=O)c1cc(Br)ccc1OC,0%
O=C(Cc1coc2ccc3ccccc3c12)Nc1nccs1,u
Cc1c(Cl)cnc(NC(=O)COC(=O)c2ccc(S(=O)(=O)NCc3ccco3)cc2)c1Cl,-19%
CC/C(=N\O)C(C)(C)/[N+]([O-])=C/c1ccc(Br)cc1,-1%
O=C1c2ccccc2C(=O)N1CCc1csc(-c2cccc(F)c2)n1,-17%
COCCNC(=O)C(c1cccc(OC)c1)N(Cc1cccs1)C(=O)Cn1nnc2ccccc21 (centres undefined),2%
Cc1cc(C(=O)NCCCN2CC(C)CC(C)C2)n(-c2ccccc2)n1 (centres undefined),-4%
O=S(=O)(NCC1OCCc2ccccc21)c1ccccc1 (centres undefined),-3%
CC(=O)NC(Cc1ccccc1)C(=O)OCC(=O)c1ccc(F)cc1 (centres undefined),-10%
COC(=O)CSc1nnc(-c2ccc(NS(=O)(=O)c3ccccc3)cc2)o1,18µM*
Cc1csc2nc(CNC(=O)c3ccco3)cn12,-27%
O=P(O)(O)C(O)(Cn1ccnc1)P(=O)(O)O,0%
O=C(Cn1ncc2c(=O)oc3ccccc3c21)N(Cc1ccco1)C1CCCCC1,-3%
# More entries.
SMILES,HPGD inh
CC(=O)Nc1sc(C)c(C)c1C(=O)OC(C)C,-16%
Cc1ccc(-c2sc(-c3ccccc3)nc2CC(=O)Nc2ccccc2F)cc1,-16%
O=C(Cc1ncc(C(F)(F)F)cc1Cl)N1CCN(c2ccccn2)CC1,-19%
COc1ccc(C(=O)NCCn2cc(SCC(=O)Nc3cc(C)on3)c3ccccc32)cc1OC,-8%
O=C(c1ccc(CSCc2ccccc2F)o1)N1CCN(c2ccc(N3CCOCC3)nn2)CC1,u
COc1ccc(C(=O)Cn2c(C(=O)/C=C/c3ccccc3)nc3ccccc32)cc1,-24%
CSc1nnc(CNC(=O)c2ccccc2)n1-c1ccc(F)cc1,-4%
O=C(c1cnccn1)N1CCC2(CCN(Cc3nccs3)CC2)CC1,-6%
CCc1ccccc1Nc1nc(N)nc(CSCC(=O)Nc2ccc(C)c(C)c2)n1,0%
COc1cccc(C2CC(c3cccc(OC)c3)n3nc(N)nc3N2)c1 (centres undefined),-3%

# Already shown: 3 of the compounds above.
SMILES,HPGD inh
O=C(Oc1ccc(N(Cc2cccs2)C2=NS(=O)(=O)c3ccccc32)cc1)c1ccccc1Cl,-21%
Cc1cc(NCCC(C)C)n2nc(C)c(-c3ccccc3)c2n1,u
O=C(CSc1nc2nc3c(cc2c(=O)n1-c1ccccc1)CCCC3)Nc1ccccc1,-24%

# Next part.
SMILES,HPGD inh
CC1CCc2c(sc(NS(=O)(=O)c3ccccc3)c2C(=O)OC(C)C)C1 (centres undefined),-14%
CCOC(=O)N1CCN(c2nc(C(F)(F)F)nc3c(C)cc(C)cc23)CC1,-14%
C[C@]12C[C@H](O)[C@H]3[C@@H](CCC4=CC(=O)CC[C@@]43C)[C@@H]1CC[C@@H]2C(=O)CO,-17%&-8%
CCOc1ccc2nnc(-c3ccc(Br)cc3)n2n1,-10%
O=C(O)[C@@H]1[C@@H](C(=O)NCc2ccccn2)[C@@H]2C=C[C@@H]1O2,-6%
CN(C)CCCN1CC(C(=O)O)CC1=O (centres undefined),-18%
COc1cc([C@@H]2[C@H]3CNCC=C3C(C#N)=C(N)C2(C#N)C#N)ccc1OC(C)C,-27%
S=c1ccss1,6.3µM*
CNC(=O)CN(c1cccc2ccccc12)S(C)(=O)=O,-10%
C/C(=N\NC(=S)NCc1ccccc1)c1ccc(Cl)cc1,-18%
Cc1ccc(N2/C(=N/c3nc(C)cc(C)n3)NC(=O)CC2C(=O)O)cc1 (centres undefined),-17%
COc1ccc(S(=O)(=O)NCCSc2ccc(Cl)cc2)cc1OC,-4%
Oc1ccccc1Nc1nc(NCC2CCCO2)c2ccccc2n1 (centres undefined),-5%
C/C(=N\O)c1c(C)c2ccccc2n1C,-18%
COc1cc(S(=O)(=O)N(Cc2cccs2)CC2CCCO2)ccc1-n1cnnn1 (centres undefined),-10%
CCOC(=O)c1cc(OC(=O)c2cccnc2)n(-c2ccccc2)n1,-2%
CC(=O)Nc1ccc(NC(=O)C(C)n2nc([N+](=O)[O-])c(Br)c2C)cc1 (centres undefined),0%
CC(C)C(c1nnnn1Cc1ccccc1)N(CCCO)Cc1cc2cc3c(cc2[nH]c1=O)OCO3 (centres undefined),-26%
Cc1cc(C)n(CCC(=O)N/N=C/c2ccc(O)cc2)n1,-23%
CCC(C)c1ccc(O)c(N)c1 (centres undefined),u
COc1ccc(OC)c(C(c2nnnn2C(C)(C)C)N2CCc3ccccc3C2)c1 (centres undefined),-2%
C/C(=C\C(=O)N1CCc2ccccc21)C(=O)O,1%
Cc1c(N2C(=O)CSC23C(=O)Nc2ccccc23)c(=O)n(-c2ccccc2)n1C (centres undefined),-2%
CCOC(=O)C1(O)CC(C)=NN1C(=O)c1cccc(Cl)c1 (centres undefined),0%
CC(=O)N1CCCc2cc(S(=O)(=O)CCC(=O)N3CCN(c4ccccc4)CC3)ccc21,-4%
COCCNC(=O)c1nc2ccccc2s1,-9%
O=C(Oc1ccc2ccc(OC(=O)N3CCOCC3)cc2c1)N1CCOCC1,-1%
CCOC(=O)N1CCN(c2nc(C)cc(C(F)(F)F)n2)CC1,u
CCOC(=O)c1c(-c2ccc(OC)cc2)nc2nonc2c1N,0%
Cn1ccnc1SCC(=O)Nc1cc(C(F)(F)F)ccc1N1CCOCC1,-7%

# A different layout for 3 compounds above.
CCCCN(C(=O)Cn1nnc2ccccc21)C(C(=O)NCCOC)c1ccc(OC)cc1OC (centres undefined)
  HPGD inh: -2%
CN(C)CCCN1CC(C(=O)O)CC1=O (centres undefined)
  HPGD inh: -18%
CC(=O)Nc1ccc(NC(=O)C(C)n2nc([N+](=O)[O-])c(Br)c2C)cc1 (centres undefined)
  HPGD inh: 0%

# Going on with the list:
SMILES,HPGD inh
O=C(Oc1ccc2c(=O)c(Oc3ccc4ccccc4c3)coc2c1)c1cccnc1,-17%
Cc1ccc(OCCn2c(C)c(/C=N/n3cnnc3)c3ccccc32)cc1,-7%
CN1C(=O)N(C)C2CC1N(C)C(=O)N2C,4%
O=C1Nc2ccc(Cl)cc2/C1=C/C1CC=CCC1 (centres undefined),-18%
